GLA inh pH 4.5: inhibitors of human alpha-galactosidase A at pH 4.5; AID 1467; activity change, negative = inhibition, % at 105 µM; purified enzyme, 4-MU-alpha-Gal fluorescence, pH 4.5; 230,000 tested, under 10 active; P06280; inconclusive = small, poorly fitted or top-dose-only inhibition, or a rising curve; inactive = flat fitted curve, though single readings scatter; no compound was filed as active;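 note: 0% = full activity with enzyme and -100% = basal without enzyme; dose as in the result columns while the protocol names 77 µM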
Target sequence (P06280 whole entry, looked up): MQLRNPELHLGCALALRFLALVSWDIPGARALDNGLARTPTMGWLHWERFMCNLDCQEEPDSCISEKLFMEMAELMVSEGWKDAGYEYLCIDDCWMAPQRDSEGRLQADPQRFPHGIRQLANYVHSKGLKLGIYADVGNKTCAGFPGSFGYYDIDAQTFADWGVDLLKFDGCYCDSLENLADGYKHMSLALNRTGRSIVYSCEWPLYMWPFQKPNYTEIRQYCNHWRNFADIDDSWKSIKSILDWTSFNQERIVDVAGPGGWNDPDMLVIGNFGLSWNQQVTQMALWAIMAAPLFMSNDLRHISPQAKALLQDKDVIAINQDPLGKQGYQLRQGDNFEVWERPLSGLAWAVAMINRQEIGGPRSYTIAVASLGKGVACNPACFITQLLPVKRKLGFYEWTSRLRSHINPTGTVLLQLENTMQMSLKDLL
Rango-impB inh: prevents formation of the Rango-importin beta complex. Q14974. Potency, µM (doses to about 92.2 µM), without a hit: at the top dose inhibition of complex formation. Rango CFP/YFP FRET sensor + importin beta, 45 min. actives 0.031% (n = 340,000); active = rising FRET ratio curve, often small or poorly fitted; inconclusive = mostly compound fluorescence or quenching in the first reads; inactive = flat curves in all reads;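 note: potency is the fitted concentration of half-maximal effect; 0% = DMSO wells and 100% = buffer wells lacking importin beta; nearly all actives have a fitted effect of over 15% in size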
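FRET biosensor (snurportin 1 IBB flanked by EYFP and cerulean), 50 nM, with compound 5 min, then 0.125 microM importin beta in PBS, 1 mM DTT, 0.02% Tween-20, 0.1% BSA. CFP/YFP ratio read after 45 min at room temperature; pre-read flags interference.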
miR-21 FLuc: miR-21 reporter, rising signal; HeLa miR-21 FLuc reporter, luciferase, 48 h; AID 2288; Potency, µM (top dose mostly 38.3 µM), without a hit: at the top dose reporter change, positive = more light; 340,000 tested, under 10 active; active = well fitted rising curve with a large enough effect; inconclusive = small, poorly fitted or top-dose-only effect; inactive = no such curve, though single readings can be large or run the other way;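 note: % of control where 0% means no effect; miR-21 action dims this reporter so a rising signal means less miR-21 action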
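HeLa miR-21-FLuc reporter line, endogenous miR-21; 2000 cells/well in DMEM/10% FBS; compound titration up to ~40uM final, 48 h, 37 degree Celsius; luciferase detection reagent, 15 min lysis, CCD luminescence.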
Rango release inh: prevents RanGTP from dissociating the Rango-importin beta complex; actives 0.071% (n = 340,000); Potency, µM (titrated, usually from 46.1 µM), without a hit: at the top dose activity change, negative = inhibition; Biochemical FRET Rango-importin beta, RanGTP-induced dissociation; active means falling FRET ratio curve, often poorly fitted, with flat reads before Ran was added; inconclusive means other falling curves, or compound fluorescence or quenching; inactive means flat or rising ratio curve;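 note: potency is the fitted concentration of half-maximal effect; % of control where 0% means no effect; nearly all actives have a fitted effect of over 45% in size; -100% = wells without RanGTP and RCC1; the record marks most hits as doubtful in a second field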
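Recombinant Rango FRET biosensor (EYFP–snurportin 1 IBB–cerulean CFP10) at 0.1 uM premixed with 0.25 uM importin beta in PBS, 1 mM DTT, 0.02% Tween-20, 0.1% BSA. Compound added 5 min; RanGTP-RCC1 (0.6 uM Ran, 2 mM GTP, 0.2 uM RCC1) then triggers release, read at 45 min.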
* = called active by the depositor; ? = inconclusive; · = no result given; [ ] = another dose, or the depositor's remark.

Structure | GLA inh pH 4.5 | Rango-impB inh | miR-21 FLuc | Rango release inh
CCCNS(=O)(=O)c1ccc(OCC(=O)Nc2ccc3c(c2)OCCO3)cc1 | 0 | 1.2% | 5% | -3%
O=C(COC(=O)c1ccccn1)NCCc1ccc(Cl)cc1 | · | -0.2% | · | 25%
O=C(C1CCCN(Cc2ccccc2F)C1)N1CCCCC1 (stereo not given) | · | -1.9% | -3% | -7%
CSc1ncccc1C(=O)NNc1cc(Cl)ccc1Cl | · | -2.2% | -4% | -1%
CCSc1nnc(-c2cccnc2)n1Cc1ccco1 | -9 | -4.5% | -4% | -8%
Cc1cc(/C=C2\SC(=S)N(Cc3ccco3)C2=O)c(C)n1-c1ccccc1 | -13 | ? | -43% | ?
N#CCCN(Cc1cccs1)C(=O)c1ccc(Cl)cc1 | -6 | 0.8% | 1% | -21%
Cc1[nH]c2ccccc2c1C(=O)C(=O)NCCOc1ccccc1 | -4 | -5.7% | -3% | -1%

More results follow.
Structure | GLA inh pH 4.5 | Rango-impB inh | miR-21 FLuc | Rango release inh
COc1cc(Cl)ccc1S(=O)(=O)n1nc(C)cc1C | -3 | -1.8% | 2% | -8%
O=C(CSc1nnc(-c2ccccc2F)o1)N1CCCC1 | · | 0.1% | -50% | -9%
Nn1c(SCc2cccc3ccccc23)nnc1-c1ccco1 | -6 | 0.9% | -7% | 25%
COC(=O)c1scc(S(=O)(=O)C(C)(C)C)c1-n1cccc1 | 4 | 4.3% | 0% | -7%
O=C(N/N=C/c1coc2ccc(Cl)cc2c1=O)c1ccc(O)cc1 | · | 0.3% | 15% | -6%
O=C(c1ccco1)N(Cc1ccco1)c1ccc(O)cc1 | 6 | -2.2% | 4% | 3%
COc1ccc2oc(C(=O)OCC(=O)N3CCN(S(=O)(=O)c4ccccc4)CC3)c(C)c2c1 | · | 1.7% | · | -12%
CCOc1nc(C)ccc1-c1noc(-c2ccccc2OC)n1 | 2 | -3.3% | -44% | -20%

The list continues:
Structure | GLA inh pH 4.5 | Rango-impB inh | miR-21 FLuc | Rango release inh
CN(C(=O)Nc1cccc(C(F)(F)F)c1)C1CCCCC1 | 4 | 5.7% | -1% | 1%
O=[N+]([O-])c1cc(Cl)ccc1NCCNc1ncc(C(F)(F)F)cc1Cl | -3 | 3.8% | -2% | -19%
CC(C)NC(=O)[C@H](CSCc1ccccc1)N1Cc2ccccc2C1=O | 3 | 6.5% | -3% | -10%
O=C(CC(=O)N/N=C\c1ccccc1)NCCc1ccccc1 | · | -6.1% | -2% | -1%
Cc1cccc(-c2nnc3n2N=C(c2ccc(Br)cc2)CS3)c1 | -8 | -2.2% | 0% | -7%
CCOC(=O)/C(=N/Nc1ccc(Cl)cc1)S(=O)(=O)c1ccc(Cl)cc1 | -4 | -1.0% | -1% | 22%
O=C1C=CC(=Nc2ccc3c(c2)Cc2ccccc2-3)O1 | · | 4.8% | · | 5%
N#Cc1ccc(Oc2ccc(NC(=O)C3CC=CCC3C(=O)O)cc2)cc1 (stereo not given) | 7 | 0.7% | 2% | -1%

Other compounds
Structure | GLA inh pH 4.5 | Rango-impB inh | miR-21 FLuc | Rango release inh
Cc1ccc(S(=O)(=O)N(CC(=O)NC2CC2)c2ccc(C)c(Cl)c2)cc1 | · | -0.7% | 2% | 10%
Cc1ccc(O)c(NC(=O)/C=C/C(=O)O)c1 | 1[21.1 µM] | -0.5% | 4% | 8%
O=C(N=C1SC2CS(=O)(=O)CC2N1c1ccccc1)c1ccccc1 (stereo not given) | · | 2.7% | · | 7%
COc1cc(C(=O)NCCNC(=O)C2CCCNC2=O)cc(OC)c1OC (stereo not given) | 4 | -0.2% | -3% | 0%
CC1CC(C)CN(S(=O)(=O)CC23CCC(CC2=O)C3(C)C)C1 (stereo not given) | · | -0.4% | 1% | -2%
Cc1cc(C(=O)NNC(=O)c2ccccc2O)c(C)o1 | · | -0.6% | · | 18%
Cn1c(CCN2CCCCC2)nc2cc(NC(=O)Nc3ccccc3)ccc21 | -1 | -1.8% | -18% | -13%
COc1ccc(N2CCN(C(=O)CCc3nnc4ccc(N5CCC(C)CC5)nn34)CC2)cc1 | · | 0.6% | 4% | 11%

Next section
Structure | GLA inh pH 4.5 | Rango-impB inh | miR-21 FLuc | Rango release inh
CCOn1c(=O)c(-c2ccc(F)cc2)[n+]([O-])c2ccccc21 | · | -0.2% | 0% | 1%
O=C(O)c1cccc(-c2ccc(/C=N/Nc3nn[nH]n3)o2)c1 | -21 | 0.1% | -15% | -8%
Cn1c(CN2CCN(c3ccc(Cl)cc3)CC2)nc2ccccc21 | 4 | 2.9% | 6% | 32%
CCOC(=O)C(C)n1cnc2c(nnn2-c2cccc(OC)c2)c1=O (stereo not given) | · | 1.2% | -27% | 1%
O=C(NCc1ccccc1)c1c(O)c2cccc3c2n(c1=O)CCC3 | 12 | -4.7% | -2% | -17%
CCCn1c(=N)c(S(=O)(=O)c2ccc(F)cc2)cc2c(=O)n3ccccc3nc21 | · | -0.2% | -11% | ?
CC1Oc2ccccc2N(CC(=O)NCc2ccc3c(c2)OCO3)C1=O (stereo not given) | 5 | -4.4% | 0% | 5%
COc1ccccc1N1CCN(CC(=O)Nc2c(C)n[nH]c2C)CC1 | 0 | -1.6% | 3% | 20%

Next structures
Structure | GLA inh pH 4.5 | Rango-impB inh | miR-21 FLuc | Rango release inh
Cc1nc2ccccc2c(=O)n1/N=C/c1ccccc1O | -4 | ? | -46% | -7%
O=C(COC(=O)CCC(=O)c1ccc(F)cc1)NCc1ccccc1Cl | · | -3.9% | · | 6%
O=C(CN1C(=O)S/C(=C\c2ccc(F)cc2)C1=O)NCCCn1ccnc1 | · | -1.3% | 1% | -6%
COc1c(Cl)ccc(Cl)c1C(=O)NC(=O)Nc1nc(C)cc(C)n1 | · | 1.3% | 10% | 0%
O=C(NNC(=O)C1CCCC1)c1cc([N+](=O)[O-])cc([N+](=O)[O-])c1 | · | -0.3% | · | 0%
O=C(NCc1cccnc1)C(=O)NCC(c1ccco1)N1CCN(c2ccccc2)CC1 (stereo not given) | 2 | -3.9% | -7% | -6%
Nc1nc(-c2ccc(F)cc2)cs1 | 12 | -3.4% | -34% | 18%
CCN(C(=O)c1c(C)noc1C)c1c(N)n(Cc2ccccc2)c(=O)[nH]c1=O | · | 0.6% | · | 3%

(more compounds)
Screens by letter – A = GLA inh pH 4.5; B = Rango-impB inh; C = miR-21 FLuc; D = Rango release inh
Cn1cnnc1SCC(=O)Nc1ncc([N+](=O)[O-])s1
  A: ·	B: ?	C: ·	D: ?

O=C(CSc1nc2ccccc2[nH]1)N/N=C/c1ccncc1
  A: -1	B: -1.2%	C: -4%	D: 0%

C=C[C@H](CC(C)C)N(Cc1ccccc1)S(=O)(=O)N(Cc1ccccc1)[C@@H](C=C)CC(C)C
  A: ·	B: 0.0%	C: ·	D: 24%

COc1cc(/C=N\Nc2nc(-c3cccs3)c(NC(C)=O)s2)ccc1O
  A: -12	B: 0.4%	C: 0%	D: 17%

COc1ccc(Cl)cc1NC(=O)CSc1nnc(CN2CCOCC2)n1-c1ccc(Cl)cc1
  A: -2	B: -0.9%	C: 12%	D: 4%

CCN(CC)S(=O)(=O)c1ccc(NC(=O)COC(=O)c2cnc(C)cn2)cc1
  A: -5	B: 0.4%	C: 0%	D: -8%

COc1ccc(OCc2nc(N)nc(Nc3ccccc3)n2)cc1
  A: -7	B: 2.8%	C: -35%	D: -1%

CCCCc1ccc(NC(=S)NCCc2ccc(S(N)(=O)=O)cc2)cc1
  A: -1	B: 1.8%	C: 17%	D: 16%

COC(=O)c1ccccc1NC(=O)c1cccc(NC(=O)c2ccc(Br)o2)c1C
  A: -7	B: -2.5%	C: -3%	D: -24%

CCOc1ccc(N(CC(=O)NN=C2CCCC2)S(C)(=O)=O)cc1
  A: -3	B: 0.2%	C: 3%	D: 0%

CCOC(=O)C1=C(O)/C(=C/c2ccc(OCC(=O)O)c(OC)c2)SC1=Nc1ccc(OC)cc1
  A: -28	B: ?	C: 5%	D: -2%

CC(=O)NCCNC(=O)[C@H](Cc1ccccc1)NC(=O)c1cccs1
  A: -4	B: 2.2%	C: 0%	D: 0%

CC(=O)N1CCSc2ccc(S(=O)(=O)NCCc3ccc(C)cc3)cc21
  A: ·	B: -3.1%	C: 10%	D: 2%

COc1ccccc1C(=O)C(O)c1ccccc1OC (stereo not given)
  A: -12	B: 3.0%	C: -5%	D: 13%

CC1(C)Cc2ccccc2-c2nnc(SCC(=O)Nc3ccc4c(c3)OCO4)n21
  A: -4	B: 2.0%	C: -9%	D: 0%

Remaining list, next part:
Screens by letter – A = GLA inh pH 4.5; B = Rango-impB inh; C = miR-21 FLuc; D = Rango release inh
COc1ccc(CCNc2oc(COc3ccccc3F)nc2C#N)cc1
  A: -8	B: ?	C: -13%	D: -24%

O=C1Oc2ccccc2C(=O)/C1=C/N1CCN(c2ccccc2F)CC1
  A: ?	B: -1.9%	C: 6%	D: -12%

COc1cc2[nH]c(=S)n(Cc3ccco3)c(=O)c2cc1OC
  A: 5	B: 0.1%	C: 2%	D: 4%

NC(=O)CSCc1c(Cl)cccc1Cl
  A: -2	B: 0.1%	C: -13%	D: 7%

O=C(NNc1nc2c(F)cccc2s1)C1COc2ccccc2O1 (stereo not given)
  A: 5	B: -0.5%	C: -10%	D: -19%

CC[C@@]12C(=O)N(c3cccc(Br)c3)C(=O)N1[C@H](c1ccc(OC)cc1)[C@@H]1C(=O)N(C(C)(C)C)C(=O)[C@@H]12
  A: ·	B: 0.6%	C: ·	D: -2%

O=C(NNc1ccccc1)C(=O)NNS(=O)(=O)c1ccc(CCCl)cc1
  A: -2	B: ?	C: 22%	D: 2%

COc1ccc(CCC(=O)N2CCN(c3cccc(C)c3C)CC2)cc1
  A: ·	B: -0.4%	C: 0%	D: -2%

Cc1ccc(S(=O)(=O)N2CCCCC2)cc1NC(=O)Cn1cnnn1
  A: 13	B: -9.1%	C: -13%	D: 8%

Cc1cc(=O)c(C(=O)Nc2cccc(C(=O)NC3CC3)c2)nn1-c1ccccc1Cl
  A: ·	B: -2.3%	C: ·	D: -10%

Compounds shown so far with a Cl atom (15):
Screens by letter – A = GLA inh pH 4.5; B = Rango-impB inh; C = miR-21 FLuc; D = Rango release inh
O=C(COC(=O)c1ccccn1)NCCc1ccc(Cl)cc1
  A: ·	B: -0.2%	C: ·	D: 25%

CSc1ncccc1C(=O)NNc1cc(Cl)ccc1Cl
  A: ·	B: -2.2%	C: -4%	D: -1%

N#CCCN(Cc1cccs1)C(=O)c1ccc(Cl)cc1
  A: -6	B: 0.8%	C: 1%	D: -21%

COc1cc(Cl)ccc1S(=O)(=O)n1nc(C)cc1C
  A: -3	B: -1.8%	C: 2%	D: -8%

O=C(N/N=C/c1coc2ccc(Cl)cc2c1=O)c1ccc(O)cc1
  A: ·	B: 0.3%	C: 15%	D: -6%

O=[N+]([O-])c1cc(Cl)ccc1NCCNc1ncc(C(F)(F)F)cc1Cl
  A: -3	B: 3.8%	C: -2%	D: -19%

CCOC(=O)/C(=N/Nc1ccc(Cl)cc1)S(=O)(=O)c1ccc(Cl)cc1
  A: -4	B: -1.0%	C: -1%	D: 22%

Cc1ccc(S(=O)(=O)N(CC(=O)NC2CC2)c2ccc(C)c(Cl)c2)cc1
  A: ·	B: -0.7%	C: 2%	D: 10%

Cn1c(CN2CCN(c3ccc(Cl)cc3)CC2)nc2ccccc21
  A: 4	B: 2.9%	C: 6%	D: 32%

O=C(COC(=O)CCC(=O)c1ccc(F)cc1)NCc1ccccc1Cl
  A: ·	B: -3.9%	C: ·	D: 6%

COc1c(Cl)ccc(Cl)c1C(=O)NC(=O)Nc1nc(C)cc(C)n1
  A: ·	B: 1.3%	C: 10%	D: 0%

COc1ccc(Cl)cc1NC(=O)CSc1nnc(CN2CCOCC2)n1-c1ccc(Cl)cc1
  A: -2	B: -0.9%	C: 12%	D: 4%

NC(=O)CSCc1c(Cl)cccc1Cl
  A: -2	B: 0.1%	C: -13%	D: 7%

O=C(NNc1ccccc1)C(=O)NNS(=O)(=O)c1ccc(CCCl)cc1
  A: -2	B: ?	C: 22%	D: 2%

Cc1cc(=O)c(C(=O)Nc2cccc(C(=O)NC3CC3)c2)nn1-c1ccccc1Cl
  A: ·	B: -2.3%	C: ·	D: -10%

Bioassay records (PubChem BioAssay)

The list is partial; count on the stated rates, not on these rows.
